Cruzain noTriton: blocks cruzain activity in detergent-free assay | P25779 | purified cruzain, Z-FR-AMC fluorescence, no detergent | Potency, µM, for inactives: max response, negative = inhibition, hits mostly inhibitors | 200,000 compounds, 2.3% hits | AID 1476; active = well fitted curve in the direction sought with a large enough effect; inconclusive = small, poorly fitted or top-dose-only effect, or another doubt; inactive = no such curve, though single readings can be large; an effect the other way counts as inactive or inconclusive;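 note: plate controls were enzyme without inhibitor for no effect and buffer without enzyme for full effect; nearly all actives have a fitted effect of over 40% in size; top concentration of the series not given in the record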
Target sequence (P25779 123-467 limits assumed): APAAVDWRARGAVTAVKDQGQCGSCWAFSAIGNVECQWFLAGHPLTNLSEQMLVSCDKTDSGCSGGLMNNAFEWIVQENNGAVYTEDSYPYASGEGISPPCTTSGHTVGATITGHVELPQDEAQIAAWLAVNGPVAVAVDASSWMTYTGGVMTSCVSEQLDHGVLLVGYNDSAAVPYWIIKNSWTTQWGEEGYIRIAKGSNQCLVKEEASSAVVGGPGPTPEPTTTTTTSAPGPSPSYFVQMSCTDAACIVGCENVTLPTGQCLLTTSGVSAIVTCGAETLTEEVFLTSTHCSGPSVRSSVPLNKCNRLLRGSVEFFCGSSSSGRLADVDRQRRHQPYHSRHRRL
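Detergent-free condition (0.00005% Triton X-100) in acetate buffer pH 5.5 with DTT. 1.5 nM enzyme and compound were pre-mixed 15 min, then 2 uM Z-FR-AMC substrate added; reaction progress from fluorescence change between first and third reads (60 s).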
SARS PLpro yeast: inhibitors of SARS-CoV papain-like protease in yeast | AID 485353 | S. cerevisiae expressing SARS-CoV PLpro, growth rescue; control for the full effect not named in the record | 330,000 compounds, 0.19% hits | Potency, µM (titrated, usually from 32.9 µM), for inactives: top-dose activity, positive = growth rescue; note: 0% is about no effect; nearly all actives have a fitted effect of over 55% in size; growth read by luminescence after 48 h
Cruzain Triton: inhibitors of Trypanosoma cruzi cruzain with detergent; 200,000 compounds, 0.43% hits; purified cruzain, Z-FR-AMC fluorescence, 0.01% Triton; Potency, µM, for the others: max response, negative = inhibition, actives largely listed as inhibitors; AID 1478; active = well fitted curve in the direction sought with a large enough effect; inconclusive = small, poorly fitted or top-dose-only effect, or another doubt; inactive = no such curve, though single readings can be large; an effect the other way counts as inactive or inconclusive;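 note: plate controls were neutral wells for no effect and buffer without enzyme for full effect; nearly all actives have a fitted effect of over 40% in size; top concentration of the series not given in the record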
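Compounds were screened in titration against cruzain (1.5 nM) with 0.01% Triton X-100 to counter colloidal aggregation. Activity was the AMC fluorescence increase over 60 s after adding 2 uM Z-FR-AMC at pH 5.5.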
Lassa entry inh: blocks Lassa virus binding to or entry into cells. AID 540256. Lassa virus pseudotype entry inhibition, cell reporter; control for the full effect not named in the record. Potency, µM (top dose mostly 37.9 µM), without a hit: at the highest dose activity change, negative = inhibition, most hits filed as inhibitors. 300,000 compounds, 1.2% hits; active means well fitted inhibition curve with a large enough effect; inconclusive means small, poorly fitted or top-dose-only effect, or effect the other way; inactive means flat fitted curve, though single readings scatter; tested in HEK293 cells; note: % is set by controls: 0 for no effect and ±100 for the full control effect; nearly all actives have a fitted effect of over 50% in size; luciferase read-out
NS1 inh: blocks influenza NS1 protein function | AID 2326 | S. cerevisiae slowed by influenza A NS1, growth recovery by OD600 | 270,000 compounds, 0.4% hits | Potency, µM (series often up to 46.1 µM), for inactives: top-dose activity, positive = more growth; note: actives are rising curves; nearly all actives have a fitted effect of over 50% in size
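OD600 was taken as the measure of yeast growth restored by compound in an NS1-expressing S. cerevisiae strain. Cells had been washed out of glucose medium and diluted 1:100 into galactose -URA medium, pH 6.0.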
RE007 growth inh: less growth of the S. pombe RE007 Vpr strain; S. pombe RE007 Vpr strain, BacTiter-Glo ATP luminescence, 24 h; control for the full effect not named in the record; Potency, µM (doses to about 92.2 µM), inactives show top-dose activity change, negative = less growth; 360,000 compounds, 0.21% hits; AID 651644; active = well fitted falling curve with a large enough effect; inconclusive = small, poorly fitted or top-dose-only effect; inactive = no such curve, though single readings can be large or run the other way;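 note: % is set by controls: 0 for no effect and ±100 for the full control effect; nearly all actives have a fitted effect of over 50% in size; the assay follows cell death caused by Vpr and the record does not say whether a fall means rescue or toxicity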
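Fission yeast strain RE007, carrying one chromosomally integrated HIV-1 vpr copy, was seeded at OD 0.01 in PMG+AL medium with 23 nL pinned compound. After 24 h at 30 °C and 99% humidity, viability was read by BacTiter-Glo luminescence.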
2A StopGo: lowers the luciferase signal of an FMDV 2A StopGo reporter | human cells with a luciferase reporter of 2A StopGo recoding; control for the full effect not named in the record | AID 1159524 | Potency, µM (titrated, usually from 57.9 µM), inactives show at the highest dose signal change, negative = less light | 410,000 compounds, 1.2% hits; active = well fitted falling curve with a large enough effect; inconclusive = small, poorly fitted or top-dose-only effect; inactive = no such curve, though single readings can be large or run the other way; tested in HEK293T cells; note: % is set by controls: 0 for no effect and ±100 for the full control effect; nearly all actives have a fitted effect of over 45% in size; luciferase light after 4 h
Marburg entry inh: Marburg virus entry inhibition; 300,000 compounds, 1.8% hits; Marburg virus pseudotyped entry inhibition, cell reporter; control for the full effect not named in the record; about a third of the inactives were read at about 46 µM; AID 540276; Potency, µM (titrated, usually from 37.8 µM), for inactives: at the highest dose activity change, negative = inhibition, actives largely listed as inhibitors; active = well fitted inhibition curve with a large enough effect; inconclusive = small, poorly fitted or top-dose-only effect, or effect the other way; inactive = flat fitted curve, though single readings scatter; tested in HEK293 cells; about a fifth of its hits are not listed in these tables; note: % is set by controls: 0 for no effect and ±100 for the full control effect; luciferase read-out
Active calls of the source: *; ? = inconclusive; nt = not tested or not shown; & = joins results of further samples; [ ] = remark or other dose. Unless noted, calls come from the whole dose curve; as a rule, active means well fitted rising curve with a large enough effect; inconclusive means small, poorly fitted or top-dose-only effect; inactive means no such curve, though single readings can be large or run the other way. Potency is the fitted concentration of half-maximal effect.

SMILES	Cruzain noTriton	SARS PLpro yeast	Cruzain Triton	Lassa entry inh	NS1 inh	RE007 growth inh	2A StopGo	Marburg entry inh
Cn1c(=O)c(=O)n(C)c2cc(S(=O)(=O)NCCN3CCN(c4ccccc4F)CC3)ccc21	nt	-2.2%	nt	15.7%	2.3%	-17.9%	-24.1%	?
CCOC(=O)C1(CCOc2ccccc2)CCN(Cc2ccc3c(c2)OCCO3)CC1	nt	0.2%	nt	?	-8.8%	-3.7%	?	?
CC(/C=N/NC(=S)Nc1cccc(S(=O)(=O)N(C)C)c1)c1ccccc1 (stereo unspecified)	-28.0%	-1.6%	-3.3%	?	-15.0%	-4.3%	15.4%	10.9%
NC(=O)Cn1c(=O)n(-c2ccccc2)c(=O)c2oc3ccccc3c21	nt	1.1%	nt	3.4%[46.1 µM]	nt	4.1%	0.0%	0.0%[46.1 µM]
O=C1C2C3CCC(O3)C2C(=O)N1c1nccs1 (stereo unspecified)	nt	nt	nt	-24.5%[46.1 µM]	nt	-5.6%	1.6%	-5.4%[46.1 µM]
COc1cc(CN2CCC(n3nccc3NC(=O)c3ccc4c(c3)OCO4)CC2)ccc1O	nt	-5.4%	nt	-0.4%	12.4%	-16.2%	-1.1%	11.4%
O=C(O)c1ccccc1C(=O)Nc1ccccc1	-8.9%	12.3%	3.9%	nt	-4.9%	2.5%	-15.3%	13.9%
COc1cc2c(cc1OC)C(C(=O)N1CCN(c3ccccc3)CC1)C(c1cccs1)N(C)C2=O (stereo unspecified)	?	-5.2%	4.1%	?	3.9%	-11.9%	-14.4%	-10.6%
O=C(Cc1cccc2ccccc12)Nc1cc(Cl)ccc1C(=O)O	nt	-8.4%	nt	2.0%[46.1 µM]	4.5%	-6.1%	-28.2%	0.7%[46.1 µM]
COc1ccc(-c2c(=O)n(OCc3nc4ccccc4[nH]3)c3ccccc3[n+]2[O-])cc1	nt	-0.7%	nt	-22.2%[46.1 µM]	-3.4%	-19.0%	8.7%	-17.1%[46.1 µM]
Cc1cccc(NC(=S)N(C)C2(c3ccccc3Cl)CCCCC2=O)c1 (stereo unspecified)	-1.8%	-13.7%	-0.9%	22.2%	6.5%	-2.3%	7.8%	-14.7%
CCOc1ccccc1NC(=O)CSc1nnnn1C1CCCC1	nt	-0.5%	nt	-6.3%	-8.0%	-13.8%	10.0%	-3.1%[46.1 µM]
COc1ccc(-c2noc(CC(=O)Nc3cc(OC)ccc3OC)n2)cc1	3.98µM*	nt	-5.7%	-4.7%[46.1 µM]	nt	nt	-21.7%	nt
C=Cn1cc[n+](CC(=O)c2cccs2)c1	nt	3.1%	nt	nt	-4.3%	11.9%	27.3%	nt
CCCCOc1ccc(C2CC(=O)NC2=O)cc1 (stereo unspecified)	-5.3%	-9.1%	0.7%	2.5%	-1.6%	25.6%	4.6%	24.4%
O=C(Nc1cccc(Cl)c1)NC1CCCCC1	-4.1%	-8.1%	2.8%	?	-19.3%	1.9%	91.7%[activator]	-23.0%
CC(C)C(NC(=O)c1ccccc1F)C(=O)NCCCn1ccnc1 (stereo unspecified)	nt	4.2%	nt	25.4%	nt	1.7%	-4.8%	4.1%
O=C(NNS(=O)(=O)Cc1ccccc1)c1ccc([N+](=O)[O-])cc1	nt	-1.2%	nt	nt	-1.4%	10.8%	73.5%[activator]	0.7%
CCC(c1nnnn1C(C)(C)C)N(Cc1cccs1)Cc1cc2cc(C)c(C)cc2n2nnnc12 (stereo unspecified)	nt	nt	nt	-2.1%	nt	0.3%	-1.6%	5.7%
COc1ccc(/C=C(/CC(=O)Nc2ccccc2)c2nc3ccccc3s2)cc1	?	13.5%	-6.5%	19.0%[46.1 µM]	6.9%	4.4%	33.4%[activator]	5.0%[46.1 µM]
CCN(CC)CCCN=Cc1c(O)n(CCc2ccc(F)cc2)c(=O)[nH]c1=O	-14.9%	5.5%	-12.4%	-5.5%	?	7.4%	6.0%	4.0%
Nc1c(C(=O)O)sc2nc(-c3ccccc3)c3c(c12)CCCC3	?	2.2%	-13.9%	nt	22.7%	13.2%	48.9%[activator]	nt
CCc1ccc(-c2ccc(SCc3ccccn3)nn2)cc1	nt	2.2%	nt	?	nt	15.6%	-6.1%	?
CC(C)C(=O)Nc1ccc(-c2ccc3nncn3n2)cc1	nt	1.7%	nt	20.0%[46.1 µM]	nt	-1.4%	-2.8%	14.6%[46.1 µM]
Cc1nc(=O)c(-c2ccccc2)c(C)n1CCCO	9.4%	-5.0%	1.8%	7.6%	4.1%	-0.5%	11.6%	15.7%[46.1 µM]
CC1CCN(CCc2nc3cc(NC(=O)COc4ccc(Cl)cc4)ccc3n2C)CC1	nt	-8.2%	nt	nt	-7.6%	-2.7%	-21.7%	nt
COc1cccc(C(=O)NCCS(=O)(=O)NCc2ccc3c(c2)OCO3)c1	nt	-2.8%	nt	12.5%	nt	1.4%	-0.7%	19.0%
CCc1cccc(C)c1NS(=O)(=O)c1c(C(=O)N2CCCCCC2)c(C)n(C)c1C	?	nt	-3.6%	1.2%[46.1 µM]	nt	nt	23.2%	nt
NC(=O)c1ccccc1NC(=O)Nc1cccc2ccccc12	nt	0.1%	nt	-12.1%	nt	-18.3%	30.3%[activator]	?
Nc1nc(N2CCCCC2)nc(N2CCCCC2)n1	3.3%	-3.3%	-0.4%	-5.1%	-13.0%	-16.8%	-15.4%	3.4%
CC(OC(=O)COc1ccccc1Cc1ccccc1)C(=O)N(C)c1ccccc1 (stereo unspecified)	nt	-26.0%	nt	?	nt	2.2%	-17.5%	1.0%
CC(/C=C1\SC(=S)N(CCC(=O)Nc2ccccc2O)C1=O)=C\c1ccccc1	nt	-0.7%	nt	-18.5%	18.0%	2.4%	-5.1%	?
O=C(NCc1nc2cccnc2n1Cc1ccc(F)cc1)c1ccccc1C(F)(F)F	8.3%	nt	-9.0%	6.3%[46.1 µM]	nt	nt	-6.6%	nt
O=C(Nc1nnc(-c2ccccc2)o1)c1cccc(N2C(=O)CCC2=O)c1	1.8%	9.4%	-0.2%	8.3%	-6.5%	-2.9%	11.2%	?
N=c1c2c3c(sc2nc2n1CCC2)CCCC3	-14.2%	-10.0%	-2.4%	-0.3%	-2.8%	-27.7%	-6.8%	-29.8%
Cc1ccccc1N(C(=O)c1csnn1)C(C(=O)NC(C)(C)C)c1ccncc1 (stereo unspecified)	nt	-0.1%	nt	nt	0.3%	11.9%	-4.5%	nt
Cn1c(=O)cc(SCC(=O)Nc2ccc3c(c2)OCO3)c2ccccc21	-9.0%	6.4%	0.3%	?	0.4%	0.3%	-18.9%	-10.3%
CCOC(=O)N1CCN(c2c(NCCCN(CC)c3cccc(C)c3)c(=O)c2=O)CC1	-6.4%	6.3%	2.0%	4.6%	-14.2%	0.0%	-8.9%	-8.6%
CC1(C)CC(=O)c2cc(-c3nc(-c4ccc(Br)cc4)cs3)c(=O)n(-c3ccccc3)c2C1	-7.2%	nt	-1.7%	0.6%[46.1 µM]	nt	nt	-13.0%	0.0%[46.1 µM]
CCN(CC)C(=O)CSc1nnc([C@@H](N)C(C)C)o1	nt	1.7%	nt	19.7%	0.0%	-21.3%	0.4%	1.7%
COc1ccc(N/C=C\C(=O)c2ccc3ccccc3c2)cc1	nt	4.5%	nt	nt	-4.1%	-0.8%	63.9%[activator]	nt
COC(=O)c1cc(NC(=O)CN(c2ccc(OC)cc2)S(=O)(=O)c2ccc(F)cc2)ccc1Cl	4.8%	?	-3.9%	-22.5%	15.7%	-11.0%	?	?
COc1ccc(/C=C/C(=O)NC(=S)N2C[C@H]3C[C@H](C2)c2cccc(=O)n2C3)cc1OC	nt	1.4%	nt	nt	5.3%	11.0%	-3.8%	nt
O=C(NCc1ccc(Cl)cc1)C1CCN(S(=O)(=O)Cc2ccccc2)CC1	-11.2%	nt	-2.7%	15.9%[46.1 µM]	nt	nt	-19.0%	-13.8%[46.1 µM]
CCOc1ccc(-n2c(SCC(=O)Nc3ccc(CC)cc3)nc3c(oc4ccccc43)c2=O)cc1	-4.1%	nt	-1.4%	1.5%[46.1 µM]	nt	nt	-8.3%	-5.1%[46.1 µM]
Cc1cc(C)nc(SCc2cnc(C)nc2N)n1	nt	0.1%	nt	6.3%	0.3%	276.6%	6.1%	-0.8%[46.1 µM]
O=C(CSc1nnnn1-c1ccccc1)c1cc2ccccc2oc1=O	?	-1.5%	6.1%	0.1%	?	-12.6%	24.1%	?
Cc1ccc(CCNC(=O)Cn2ncc3c(=O)oc4ccccc4c32)cc1	-3.1%	nt	-0.5%	6.1%[46.1 µM]	nt	nt	-11.6%	17.9%[46.1 µM]
O=c1[nH]c2ccccc2c(=O)n1CCCO	5.3%	17.9%	7.3%	-8.2%	8.1%	-11.5%	-1.1%	?
Nc1ccc2nn(-c3ccccc3)nc2c1	nt	-2.3%	nt	8.1%	9.1%	-27.0%	21.3%	5.4%&5.4%[46.1 µM]
Other entries follow:
SMILES	Cruzain noTriton	SARS PLpro yeast	Cruzain Triton	Lassa entry inh	NS1 inh	RE007 growth inh	2A StopGo	Marburg entry inh
Cc1ccc([N+](=O)[O-])cc1-c1ccc2cccc(C)c2n1	-7.1%	1.7%	0.0%	-0.1%	-16.8%	6.5%	15.8%	-4.9%
O=C(c1ccco1)N1CCN(C(=O)c2[nH]ncc2[N+](=O)[O-])CC1	7.9%	2.9%	0.0%	?	14.7%	15.5%	-13.5%	22.5%
O=C(NCCc1ccccc1)Nc1cccc(Cl)c1	-3.9%	-38.4%	-7.7%	-11.8%	-29.3%	34.3%	23.1%	?
COCCCNC(=O)C(=O)NCC1CCCN1S(=O)(=O)c1cccs1 (stereo unspecified)	nt	-2.3%	nt	-12.1%	nt	12.7%	-1.5%	8.1%[46.1 µM]
O=C(CN1C(=O)N/C(=C\c2ccccc2OCc2ccc(C(=O)O)cc2)C1=O)Nc1ccccc1F	nt	1.8%	nt	12.5%[46.1 µM]	-1.9%	-8.9%	0.7%	19.4%[46.1 µM]
CC1(C)CC(=O)C2=C(C1)OC(N)=C(C#N)C21CCC2(CC1)OCCO2	-7.7%	nt	3.7%	-8.7%	7.4%	-7.4%	nt	10.3%
COc1ccc(CCNC(=O)COC(=O)COc2c(C)cc(C)cc2C)cc1OC	nt	-0.7%	nt	?	-29.8%	1.6%	-3.2%	14.1%[46.1 µM]
O=C(CCCOc1ccccc1)NCC1CCCO1 (stereo unspecified)	-6.6%	28.2%	2.6%	14.8%	12.0%	2.2%	45.7%[activator]	-7.3%
CCC(C)[C@H](NC(=O)NCc1ccccc1Cl)C(=O)OC (stereo partly specified)	6.3%	2.4%	-1.3%	-2.5%	?	-4.1%	17.3%	?
